RGS16-Gao = modulates binding between human RGS16 and Galphao; bead-based flow cytometry RGS16-Galphao binding, fluorescence; actives lie on both sides; binding response (% of control), % at 10 µM; O15492+P09471; AID 1441; 220,000 compounds, 0.38% hits;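 active = below 25% or above 175%, edge rows of some plates excepted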;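 also: Galphao activated by GDP with aluminum fluoride before binding; 100% = wells without compound and 0% = beads without RGS; some results beyond the cut were filed as inactive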
HSV replic up = increases HSV replication in cells | maximum fold increase | 220,000 compounds, 0.005% hits | HSV replication augmentation in cells, fold increase;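 active = peak rise of 1.5-fold or more in the series; inconclusive = self-fluorescent or not available for retest; tested in PC3 cells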;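 also: first round at 10 µM; read as green reporter fluorescence; hits show the peak of a series up to 25 µM; 1 = signal of infected wells without compound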
Insulin prom inh = TRM-6 insulin promoter activity inhibition. AID 1273. TRM-6 cells (human fetal islet line), insulin promoter-eGFP reporter, imaging; reporter expression induced with tamoxifen. 130,000 compounds, 0.9% hits. inhibition, % at 2 µM;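 active = inhibition above the mean plus 3 SD, with well images judged a real hit on visual review, cut at about 60% in these data, passing the limit was not always enough; inconclusive = inhibition over the cutoff but images rejected on review; inactive = inhibition not above the cutoff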
GALR2 agonist = GALR2 (human) receptor agonism; GALR2-expressing cells, agonist activation read-out; activation, %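 (tested at 5 µM)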; 140,000 compounds, 0.48% hits;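 active = above mean plus 3 SD of all compounds, about 5% in these data, not always enough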;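 also: 0% = vehicle buffer wells and 100% = reference agonist at full effect; tested in CHO reporter cells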
PKD1 inh = PKD1 (human) kinase inhibition; 200,000 compounds, 0.056% hits; inhibition, %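 (about 10 µM by stock and volumes)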; AID 797; Q15139; PKD1 kinase fluorescence polarization assay;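 active = inhibition of 50% or more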;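 also: controls were vehicle for no effect and a reference inhibitor for full effect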
Target sequence (Q15139 whole entry, looked up): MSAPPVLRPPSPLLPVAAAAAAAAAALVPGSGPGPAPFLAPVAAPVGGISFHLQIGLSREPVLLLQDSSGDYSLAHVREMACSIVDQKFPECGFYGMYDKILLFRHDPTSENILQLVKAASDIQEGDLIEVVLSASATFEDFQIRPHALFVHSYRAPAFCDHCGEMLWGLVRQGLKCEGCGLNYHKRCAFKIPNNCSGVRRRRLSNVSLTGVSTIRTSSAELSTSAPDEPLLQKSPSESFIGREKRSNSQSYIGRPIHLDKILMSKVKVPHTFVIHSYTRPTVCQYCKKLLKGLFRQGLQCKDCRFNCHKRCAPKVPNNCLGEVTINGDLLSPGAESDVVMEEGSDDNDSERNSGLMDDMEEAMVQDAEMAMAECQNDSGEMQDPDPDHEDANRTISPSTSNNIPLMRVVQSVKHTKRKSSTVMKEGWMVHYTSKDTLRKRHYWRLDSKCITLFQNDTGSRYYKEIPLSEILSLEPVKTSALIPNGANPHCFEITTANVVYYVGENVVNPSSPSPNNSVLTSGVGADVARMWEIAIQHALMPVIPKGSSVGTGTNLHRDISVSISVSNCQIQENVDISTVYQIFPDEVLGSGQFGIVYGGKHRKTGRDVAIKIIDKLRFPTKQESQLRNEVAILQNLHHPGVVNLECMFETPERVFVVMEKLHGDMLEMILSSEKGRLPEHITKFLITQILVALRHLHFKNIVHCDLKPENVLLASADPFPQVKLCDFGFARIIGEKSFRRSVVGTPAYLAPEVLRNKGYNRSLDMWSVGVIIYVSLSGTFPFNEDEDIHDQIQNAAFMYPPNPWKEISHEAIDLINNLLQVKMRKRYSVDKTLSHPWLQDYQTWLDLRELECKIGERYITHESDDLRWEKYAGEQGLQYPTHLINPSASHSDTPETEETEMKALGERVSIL
Insulin prom inh cell count = further read-out of Insulin prom inh, marked with its call; normalized cell count, %; measured here: cell count, toxicity; reference of the scale not given here;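 cells exposed to compound for 48 h; stained nuclei by imaging scaled within each plate; lower means fewer cells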
HSV replic up primary fold = second read-out of HSV replic up, no call of its own (marks repeat the call); fold increase; compound at 10 µM; measured here: primary screen fold increase 10 uM; tested in PC3 cells;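 GFP signal in the first replicate; 1 = infected wells without compound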
* hit, by the source's call; i = inactive; ? = inconclusive; . = no result given.

SMILES	RGS16-Gao	HSV replic up	HSV replic up primary fold	Insulin prom inh	Insulin prom inh cell count	GALR2 agonist	PKD1 inh
Cc1nn(-c2cc(N3CCCC3)ccc2[N+](=O)[O-])c(=O)c2ccccc12	86	?	.	-134	80	-1.9	2
Cc1cc(N2CCOCC2)nc2ccc(NC(=O)CCC(=O)N3CCCCC3)cc12	100	i	0.76	.	.	-1.9	-3
CCOc1cc2[nH]c(=S)n(C3CC3)c(=O)c2cc1OCC	110	i	0.94	-27	164	.	-2
CC(C)C(=O)Nc1nnc(SCC(=O)N2c3ccccc3CC2C)s1 (configuration not stated)	102	i	0.73	-23	266	-0.4	0
CC(Sc1nnc(NC(=O)c2cc3ccccc3oc2=O)s1)c1ccccc1 (configuration not stated)	106	i	1	.	.	-5.5	5
Cc1onc(-c2ccccc2)c1C(=O)NC(=S)NNC(=O)c1ccco1	102	i	0.92	.	.	.	.
CCOC(=O)Cc1csc(/N=C/c2c(O)n(-c3ccc(C)cc3C)c(=O)c3ccccc23)n1	107	?	.	6	126	0.9	-17
CCOC(=O)C1CCN(c2nc(-c3ccc(C)cc3)nc3ccccc23)CC1	106	i	0.97	-17	189	.	0
Nn1c(SCc2cc([N+](=O)[O-])cc3c2OCOC3)nnc1-c1ccccn1	102	i	1	.	.	.	.
COc1cccc(-c2c(NC(=O)c3ccco3)n(-c3ccc(C)cc3)nc(C)c2=O)c1	103	i	0.93	.	.	-1.1	1
O=C(NNS(=O)(=O)c1ccccc1)c1ccncc1	101	i	1	-26	83	-1.5	1
CCOC(=O)C(NC(=O)CC)(Nc1ccc(S(=O)(=O)Nc2onc(C)c2C)cc1)C(F)(F)F (configuration not stated)	102	i	1.1	19	103	-1.4	-8
NC(=O)Cc1ccc(C(=O)c2ccc(Cl)cc2)s1	126	i	1	45	45	.	0
CNc1nc2[nH]c(=O)c3c(c2s1)OC(N)=C(C#N)C3c1cccc(F)c1 (configuration not stated)	112	.	.	.	.	-0.9	0
Cc1ccc(NC(=O)CN(C)Cc2nc3ccccc3c(=O)[nH]2)c(Br)c1	102	i	1.1	-17	148	-1.4	4
CCOc1cc(C(=O)Nc2ccc3c4c(cccc24)C(=O)N3CC)cc(OCC)c1OCC	98	i	0.75	1	37	-0.8	-7
N=C1C(=O)OCC1c1ccccc1NC(=O)Nc1ccccc1 (configuration not stated)	110	i	1	20	94	.	-5
CNC(=O)c1ncoc1-c1ccc(Cl)cc1	107	i	1	.	.	.	.
Cc1cc(C)n(CC(=O)N2N=C(C(F)F)CC2(O)C(F)F)n1 (configuration not stated)	106	i	0.96	22	154	-1.3	1
O=C(O)CC1C(=O)NCCN1Cc1ccc(F)c(F)c1 (configuration not stated)	104	i	0.95	.	.	-1.0	-6
C/C=C/c1ccc(OCCCNC)c(OC)c1	118	i	0.91	.	.	0.1	3
COc1ccc(CNC(=O)CCNS(=O)(=O)c2ccc(Cl)cc2)cc1	116	i	1	-25	92	.	-2
COc1cc(/C=N/NC(=O)Nc2ccccc2)ccc1OCCOc1ccccc1C	102	i	0.76	43	119	-1.2	-5
COc1cccc(/C=N/NC(=O)c2cc(-c3cccn3C)n[nH]2)c1O	75	i	0.82	.	.	-1.6	-7
COc1ccc(-c2nc3ccccc3c(=O)n2-c2c(C)n(C)n(-c3ccccc3)c2=O)cc1	96	i	0.99	.	.	.	.
O=C(Nc1ccccc1)c1cc([N+](=O)[O-])ccc1Cl	92	i	1.1	.	.	.	.
O=C(Cn1ncc(Cl)c(Cl)c1=O)c1ccc(Cl)cc1	103	.	.	-8	41	-1.2	-11
CC12CS(=O)(=O)CC1SC(=S)N2c1ccccn1 (configuration not stated)	120	i	0.95	-121	48	0.4	-7
C=CCC(c1ccccc1)N(C(C)=O)c1ccco1 (configuration not stated)	102	i	0.93	.	.	.	5
Cc1ccc(NC(=O)C(Cc2ccccc2)n2cccc2)cc1 (configuration not stated)	102	i	1.1	.	.	.	.
Cc1ccccc1-n1c(SCc2c(C)noc2C)nnc1-c1ccncc1	98	i	0.9	-48	92	-2.6	-9
COc1ccc(CN2C(=O)/C(=C/c3ccncc3)SC2=S)cc1	104	i	0.8	-9	139	0.5	-2
Cc1cc(/C=N/n2cnnc2)c(C)n1-c1cc(Cl)ccc1Cl	106	i	1.1	0	110	-0.9	4
Cc1ccccc1S(=O)(=O)Cc1ccc(C(=O)NC(C)c2ccc3c(c2)OCCO3)o1 (configuration not stated)	94	i	1.2	.	.	-1.8	6
COc1ccc(N)cc1-n1cnnn1	102	i	0.95	.	.	.	-2
CCCCCCNC(=O)c1c(O)c2ccccc2[nH]c1=O	98	i	1	-18	147	-0.5	-1
O=c1[nH]c2ccc(Cl)cc2c(O)c1-c1ccccc1	100	i	0.85	-27	83	-1.9	11
Cn1c(=S)[nH]c2cccnc21	103	i	0.88	23	116	-1.1	4
Cc1cc(C)n(C(=O)CN2C(=O)c3ccccc3C2=O)n1	94	i	0.84	.	.	-1.9	-3
O=c1cc(CSc2nc3cc(Cl)ccc3o2)nc2sccn12	99	i	0.88	25	63	0.6	-9
CC(C)S(=O)(=O)c1csc(NC(=O)Nc2ccc(Cl)cc2)c1	107	i	0.89	.	.	.	.
O=C(NCCn1ccc2ccccc21)C1CCCCC1	101	i	0.97	.	.	-0.4	-5
CCOC(=O)c1sc(C)c(C(=O)NC2CCCCC2)c1N	103	i	0.88	-38	164	-2.1	-3
CNC(=O)CSc1nnc(-c2cccnc2)n1-c1ccc(C)cc1	85	i	1.1	.	.	.	-29
CCOC(=O)Cc1csc(NC(=S)NC(=O)c2ccccc2C)n1	98	i	0.95	-26	135	-2.1	-12
CC(NC(=O)c1ccc2c(c1)OCO2)C(c1cccs1)N1CCOCC1 (configuration not stated)	116	i	0.94	6	136	-0.2	-6
CC(=O)Nc1cccc(-c2csc(N)n2)c1	100	i	1.1	.	.	.	0
O=C1CC(c2ccccc2)CC(O)=C1C=NCc1ccco1 (configuration not stated)	105	i	1.1	45	111	0.5	-16
O=c1c2[nH]c3ccc(F)cc3c2ncn1CCN1CCOCC1	101	i	1	18	70	-0.5	-3
O=C1CCCC/C1=C/Nc1ccc(C(=O)O)cc1	95	i	0.98	.	.	-2.2	-2
CC(=O)OCC1=C(C(=O)O)N2C(=O)C(NC(=O)CCn3nc(C(F)(F)F)c(Br)c3C3CC3)C2SC1 (configuration not stated)	89	i	1	.	.	.	3
Cc1nnc(NC(=O)CSc2nc(C(C)C)nc3ccccc23)s1	92	i	1.1	8	114	-1.6	14
O=C(Nc1ccc2[nH]c(=O)[nH]c2c1)c1cc(F)c(F)cc1Cl	102	i	0.92	.	.	.	.
Cc1n[nH]c(=O)nc1NCc1ccco1	103	i	0.98	-6	141	-0.3	-5
COc1ccc(-c2cc(=O)n(-c3nc4ccccc4[nH]3)[nH]2)cc1	93	i	0.81	60	112	4.3	-7
O=C(c1cnc2n(c1=O)CCS2)N1CCN(c2ccc([N+](=O)[O-])cc2)CC1	100	i	0.91	.	.	-2.0	15
COC(=O)c1ccccc1NC(=O)CN1CCC(n2nnc3cc(F)ccc32)CC1	95	i	1.1	52	72	0.1	2
CCCCNC(=O)N1CCN(S(C)(=O)=O)CC1	114	i	1.1	.	.	.	-7
COc1ccc(-c2cc(C(=O)O)c3ccccc3n2)c(OC)c1	99	i	0.93	.	.	-1.0	5
Cc1cc(NC(=O)Nc2ccccc2F)ccc1Br	101	i	0.9	.	.	.	6

The listing continues:
SMILES	RGS16-Gao	HSV replic up	HSV replic up primary fold	Insulin prom inh	Insulin prom inh cell count	GALR2 agonist	PKD1 inh
O=C(O)C1CCC(N2C(=O)C3CCCCC3C2=O)CC1 (configuration not stated)	104	i	0.64	22	50	-2.6	-5
COc1ccc(NS(=O)(=O)c2cc([N+](=O)[O-])ccc2N/N=C\c2c(C)[nH]c3ccccc23)cc1	145	?	.	.	.	-1.5	-4
C=CCn1c(SC2CCOC2=O)nc2sc(C)c(C)c2c1=O (configuration not stated)	104	i	1	60	191	-2.6	3
Nc1nc2n(n1)C(c1cccc(Cl)c1)CC(c1ccc(F)cc1)N2 (configuration not stated)	102	i	0.96	.	.	-2.6	1
CS(=O)(=O)c1ccc(C(=O)N2CCc3ccccc3C2)cc1	119	i	1	-42	111	.	0
O=C(COC(=O)CN1C(=O)c2ccccc2C1=O)Nc1ccc(S(=O)(=O)N2CCCC2)cc1	101	i	0.96	35	163	-2.7	2
CCc1cc(C(=O)OC)c(NC(=O)CC2SC(N)=NC2=O)s1 (configuration not stated)	101	i	1	.	.	.	4
COc1ccc2ccccc2c1C1CC(=O)N2CN(C)CSC2=C1C#N (configuration not stated)	38	i	0.63	-36	63	-1.3	9
Cc1cccc2c1CC(C)(C)N=C2C1=C(O)CCCC1=O	110	i	0.73	.	.	-1.6	-1
CCCC(=O)Nc1nnc(SCC(=O)NCc2cccs2)s1	99	i	0.97	46	31	-0.9	-8
CC1CC(C)CN(C(=S)NC2CCCCC2)C1 (configuration not stated)	112	i	1	0	68	-0.2	-5
O=C(CC1Sc2ccccc2NC1=O)OCC(=O)N1CCc2ccccc21 (configuration not stated)	103	i	0.92	.	.	-1.3	10
COC(=O)c1c(C)nc(C)c(C(=O)OC)c1-c1ccc(OC)c(OC)c1	103	i	1	.	.	.	-11
COC(=O)c1cc2ccccc2c(-c2c(OC)c(C(=O)OC)cc3ccccc23)c1OC	103	i	0.92	-34	54	-1.9	-8
Nc1c(N2CCCCC2)c2ccccc2oc1=O	88	i	0.98	29	77	.	-7
Cc1n[nH]c(=S)n1/N=C/c1ccc(OCc2ccc(Cl)cc2Cl)cc1	112	i	0.99	-13	107	-0.7	2
Cc1ccc(F)cc1NC(=O)c1ccc2c(c1)OCO2	104	i	0.95	23	120	-2.7	-11
CNC(=S)NCCC(c1ccccc1)c1ccccc1	80	i	1	-27	108	-1.4	8
CNC(=S)Nc1ccc(C)cc1	101	i	0.96	50	123	-0.2	8
COC(=O)C1=C(C)N(C)C(C)=C(C(=O)OC)C1c1cccc(Br)c1	103	i	0.99	6	93	-0.5	-4
CCOc1ccc(C(C)(O)CN2CCOCC2)cc1 (configuration not stated)	98	i	0.96	-3	238	-3.2	-12
COC(=O)c1ccccc1NC(=O)Cn1cc2c(n1)CCC(C)C2 (configuration not stated)	108	i	0.89	.	.	-1.9	-1
CCOC(=O)C1CCCN(Cc2nc(N)nc(Nc3ccccc3)n2)C1 (configuration not stated)	98	i	1	-9	130	-0.8	-3
Cc1c(N(C(=O)CNC(=O)c2ccccc2)C2(C(=O)NC3CCCCC3)CCCCC2)c(=O)n(-c2ccccc2)n1C	104	i	1	-147	111	.	1
CCOC(=O)c1c(C)oc2c(CC(=O)c3ccccc3)c(Cl)c(O)c(O)c12	105	i	1	37	57	-0.8	-14
COc1cccc(C2CC(c3ccc(Cl)cc3Cl)Nc3nc(N)nn32)c1 (configuration not stated)	89	i	1.1	-8	87	-0.2	-3
CCC1CCc2c(sc(NC(C)=O)c2C#N)C1 (configuration not stated)	101	i	0.98	-7	127	-0.5	-4
O=[N+]([O-])c1ccc(OCCO)nc1	105	i	0.87	.	.	.	.

Filtered by structure: the entries above with two or more sulfur atoms
SMILES	RGS16-Gao	HSV replic up	HSV replic up primary fold	Insulin prom inh	Insulin prom inh cell count	GALR2 agonist	PKD1 inh
CC(C)C(=O)Nc1nnc(SCC(=O)N2c3ccccc3CC2C)s1 (configuration not stated)	102	i	0.73	-23	266	-0.4	0
CC(Sc1nnc(NC(=O)c2cc3ccccc3oc2=O)s1)c1ccccc1 (configuration not stated)	106	i	1	.	.	-5.5	5
CC12CS(=O)(=O)CC1SC(=S)N2c1ccccn1 (configuration not stated)	120	i	0.95	-121	48	0.4	-7
COc1ccc(CN2C(=O)/C(=C/c3ccncc3)SC2=S)cc1	104	i	0.8	-9	139	0.5	-2
O=c1cc(CSc2nc3cc(Cl)ccc3o2)nc2sccn12	99	i	0.88	25	63	0.6	-9
CC(C)S(=O)(=O)c1csc(NC(=O)Nc2ccc(Cl)cc2)c1	107	i	0.89	.	.	.	.
CCOC(=O)Cc1csc(NC(=S)NC(=O)c2ccccc2C)n1	98	i	0.95	-26	135	-2.1	-12
Cc1nnc(NC(=O)CSc2nc(C(C)C)nc3ccccc23)s1	92	i	1.1	8	114	-1.6	14
C=CCn1c(SC2CCOC2=O)nc2sc(C)c(C)c2c1=O (configuration not stated)	104	i	1	60	191	-2.6	3
CCc1cc(C(=O)OC)c(NC(=O)CC2SC(N)=NC2=O)s1 (configuration not stated)	101	i	1	.	.	.	4
CCCC(=O)Nc1nnc(SCC(=O)NCc2cccs2)s1	99	i	0.97	46	31	-0.9	-8
